Source: PubChem BioAssay (National Center for Advancing Translational Sciences (NCATS))
Cruzain Triton: blocks cruzain activity in presence of Triton detergent; Potency, µM, for inactives: max response, negative = inhibition, actives largely listed as inhibitors; P25779; AID 1478; purified cruzain, Z-FR-AMC fluorescence, 0.01% Triton; hit rate 0.43% among 200,000; active = well fitted curve in the direction sought with a large enough effect; inconclusive = small, poorly fitted or top-dose-only effect, or another doubt; inactive = no such curve, though single readings can be large; an effect the other way counts as inactive or inconclusive;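 note: plate controls were neutral wells for no effect and buffer without enzyme for full effect; nearly all actives have a fitted effect of over 40% in size; top concentration of the series not given in the record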
Target sequence (P25779 123-467 limits assumed): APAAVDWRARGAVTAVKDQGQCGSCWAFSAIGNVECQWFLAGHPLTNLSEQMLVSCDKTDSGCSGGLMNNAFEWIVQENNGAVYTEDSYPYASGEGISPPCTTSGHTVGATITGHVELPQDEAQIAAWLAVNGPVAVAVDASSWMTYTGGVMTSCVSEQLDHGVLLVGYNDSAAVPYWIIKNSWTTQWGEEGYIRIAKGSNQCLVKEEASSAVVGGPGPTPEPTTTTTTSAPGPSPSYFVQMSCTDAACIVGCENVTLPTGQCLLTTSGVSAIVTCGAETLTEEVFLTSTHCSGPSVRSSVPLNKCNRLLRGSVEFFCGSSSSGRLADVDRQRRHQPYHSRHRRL
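Compounds were screened in titration against cruzain (1.5 nM) with 0.01% Triton X-100 to counter colloidal aggregation. Activity was the AMC fluorescence increase over 60 s after adding 2 uM Z-FR-AMC at pH 5.5.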
SARS PLP yeast: SARS-CoV PLP inhibition in yeast; S. cerevisiae expressing SARS-CoV PLpro, growth rescue; control for the full effect not named in the record; Potency, µM (doses to about 32.9 µM), for the others: at the highest dose activity, positive = growth rescue; hit rate 0.19% among 330,000; note: 0% is about no effect; nearly all actives have a fitted effect of over 55% in size; growth read by luminescence after 48 h
RE007 growth inh: less growth of the S. pombe RE007 Vpr strain. S. pombe RE007 Vpr strain, BacTiter-Glo ATP luminescence, 24 h; control for the full effect not named in the record. Potency, µM (series often up to 92.2 µM), for the others: at the top dose activity change, negative = less growth. hit rate 0.21% among 360,000; active = well fitted falling curve with a large enough effect; inconclusive = small, poorly fitted or top-dose-only effect; inactive = no such curve, though single readings can be large or run the other way;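 note: % is set by controls: 0 for no effect and ±100 for the full control effect; nearly all actives have a fitted effect of over 50% in size; the assay follows cell death caused by Vpr and the record does not say whether a fall means rescue or toxicity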
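Fission yeast strain RE007, carrying one chromosomally integrated HIV-1 vpr copy, was seeded at OD 0.01 in PMG+AL medium with 23 nL pinned compound. After 24 h at 30 °C and 99% humidity, viability was read by BacTiter-Glo luminescence.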
Lassa entry inh: inhibitors of Lassa virus binding or cell entry; Lassa virus pseudotype entry inhibition, cell reporter; control for the full effect not named in the record; hit rate 1.2% among 300,000; AID 540256; Potency, µM (titrated, usually from 37.9 µM), inactives show at the highest dose activity change, negative = inhibition, hits mostly inhibitors; active means well fitted inhibition curve with a large enough effect; inconclusive means small, poorly fitted or top-dose-only effect, or effect the other way; inactive means flat fitted curve, though single readings scatter; tested in HEK293 cells; note: % is set by controls: 0 for no effect and ±100 for the full control effect; nearly all actives have a fitted effect of over 50% in size; luciferase read-out
Marburg entry inh: blocks Marburg virus binding to or entry into cells; Marburg virus pseudotyped entry inhibition, cell reporter; control for the full effect not named in the record; about a third of the inactives were read at about 46 µM; Potency, µM (top dose mostly 37.8 µM), inactives show at the top dose activity change, negative = inhibition, most hits filed as inhibitors; hit rate 1.8% among 300,000; active = well fitted inhibition curve with a large enough effect; inconclusive = small, poorly fitted or top-dose-only effect, or effect the other way; inactive = flat fitted curve, though single readings scatter; tested in HEK293 cells; about a fifth of its hits are not listed in these tables; note: % is set by controls: 0 for no effect and ±100 for the full control effect; luciferase read-out
Cruzain inh noDet: inhibitors of Trypanosoma cruzi cruzain without detergent; P25779; purified cruzain, Z-FR-AMC fluorescence, no detergent; Potency, µM, without a hit: max response, negative = inhibition, actives largely listed as inhibitors; hit rate 2.3% among 200,000; AID 1476; active = well fitted curve in the direction sought with a large enough effect; inconclusive = small, poorly fitted or top-dose-only effect, or another doubt; inactive = no such curve, though single readings can be large; an effect the other way counts as inactive or inconclusive;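 note: plate controls were enzyme without inhibitor for no effect and buffer without enzyme for full effect; nearly all actives have a fitted effect of over 40% in size; top concentration of the series not given in the record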
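Purified cruzain at 1.5 nM, pre-incubated 15 min with compound at room temperature in 100 mM sodium acetate pH 5.5, 5 mM DTT, 0.00005% Triton X-100. Reaction started with 2 uM Z-FR-AMC; AMC fluorescence increase over 60 s gives rate.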
StopGo reporter: FMDV 2A StopGo reporter, luciferase signal; human cells with a luciferase reporter of 2A StopGo recoding; control for the full effect not named in the record; Potency, µM (series often up to 57.9 µM), for the others: at the highest dose signal change, negative = less light; hit rate 1.2% among 410,000; active = well fitted falling curve with a large enough effect; inconclusive = small, poorly fitted or top-dose-only effect; inactive = no such curve, though single readings can be large or run the other way; tested in HEK293T cells; note: % is set by controls: 0 for no effect and ±100 for the full control effect; nearly all actives have a fitted effect of over 45% in size; luciferase light after 4 h
NS1 inh: influenza NS1 inhibition; S. cerevisiae slowed by influenza A NS1, growth recovery by OD600; Potency, µM (highest dose often 46.1 µM), inactives show at the top dose activity, positive = more growth; hit rate 0.4% among 270,000; AID 2326; note: actives are rising curves; nearly all actives have a fitted effect of over 50% in size
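A cell-based growth assay was used: compounds that relieve NS1-induced slow growth of budding yeast raise OD600. Assay medium was yeast nitrogen base with ammonium sulphate and -URA supplement, pH 6.0, with 2% galactose.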
* hit, by the source's call; u = inconclusive; x = no result given; & = joins results of further samples; [ ] = another dose, or the depositor's remark. Unless noted, calls come from the whole dose curve; as a rule, active means well fitted rising curve with a large enough effect; inconclusive means small, poorly fitted or top-dose-only effect; inactive means no such curve, though single readings can be large or run the other way. Potency is the fitted concentration of half-maximal effect.

cpd	compound	Cruzain Triton	SARS PLP yeast	RE007 growth inh	Lassa entry inh
1	COc1c(C)cc(C(=O)C2CCCN(C(=O)Cn3nc(C)nc3C)C2)cc1C (stereo not given)	x	3%	3%	29%[46.1 µM]
2	CCC(=NCCc1ccc(OC)c(OC)c1)C1=C(O)CC(C)(C)CC1=O	x	-1%	3%	7%
3	CCCN1C(=O)c2[nH]nc(-c3ccc(F)cc3)c2C1c1ccccn1 (stereo not given)	-1.9%	x	x	-10%[46.1 µM]
4	COc1ccc(-c2csc(NC(=O)c3cccc(N4C(=O)CCC4=O)c3)n2)cc1C	x	-1%	-8%	0%
5	Cc1cc2c(cc1S(=O)(=O)Nc1cc(C(F)(F)F)cc(C(F)(F)F)c1)OCC(=O)N2	-8.9%	x	x	28%[46.1 µM]
6	COC(=O)CSc1nc2c(cnn2-c2ccc(Cl)cc2)c(=O)[nH]1	x	-1%	-6%	x
7	O=C1CCCCCN1Cc1ccccc1	3.2%	2%	8%	6%
8	Cc1sc(NC(=O)c2cccs2)c(C(N)=O)c1C	-6.8%	-14%	-5%	12%
9	CCCCN1CCc2c(c3ccccc3n2Cc2ccccc2)C1	x	-3%	2%	x
10	Cc1ccc(N2C(=O)NC(=O)/C(=C\c3cn(CC(=O)O)c4ccccc34)C2=O)cc1	x	8%	14%	x
11	CCn1c(SCC(=O)Nc2ccc(OC)cc2)nnc1-c1ccco1	-0.5%	3%	26%	-6%
12	COc1ccc(Br)cc1C(=O)Nc1ccc(N2CCN(S(C)(=O)=O)CC2)cc1	-2.1%	2%	1%	14%

cpd	Marburg entry inh	Cruzain inh noDet	StopGo reporter	NS1 inh
1	0%[46.1 µM]	x	-4%	-6%
2	x	x	-22%	x
3	-4%[46.1 µM]	-11%	-16%	x
4	6%	x	u	8%
5	x	16%	49%[activator]	x
6	x	x	-11%	-2%
7	u	-8%	-19%	0%
8	11%	-8%	x	-47%
9	x	x	-30%	-4%
10	x	x	7%	u
11	-21%	2%	12%	1%
12	-3%	u	15%	6%

cpd	compound	Cruzain Triton	SARS PLP yeast	RE007 growth inh	Lassa entry inh
13	COc1ccc(C)cc1NC(=O)CSCc1cc(=O)n2c(C)csc2n1	x	-3%	-8%	2%
14	CC(C)c1ccc(NC(=O)c2cc(S(=O)(=O)NC3CCCCC3)ccc2F)cc1	-1.1%	x	x	u
15	Cc1cc(=O)[nH]c(N/N=C/c2ccc(Br)s2)n1	-5.5%	4%	7%	-1%
16	COc1ccc(C(=O)Cn2cnc3ccccc3c2=O)cc1OC	x	-4%	-1%	1%[46.1 µM]
17	CCn1nnnc1SCC(=O)c1ccc(C)cc1	-6.4%	-8%	19%	21%
18	NCCc1nc(-c2ccccc2)cs1	x	1%	14%	41%
19	CCN(C1CCCCC1)S(=O)(=O)CCNC(=O)c1ccccc1	x	-2%	8%	8%
20	CCc1ccc(NC(=O)CC2C(=O)N(c3cccc(C)c3)C(=O)N2CCC(C)C)cc1 (stereo not given)	-10%	x	x	-8%[46.1 µM]
21	CCCCCCNS(=O)(=O)c1nc2nc(C)cc(C)n2n1	0.1%	5%	-4%	x
22	Cc1nc2c3ccccc3n(CC#N)c(=O)n2n1	2.3%	-5%	6%	x
23	Cc1ccc(NC(=O)CNc2ccc(Cl)cc2F)cc1	-3.1%	-6%	-9%	0%
24	CCc1ccc(N(C(=O)C(F)(F)F)C(C(=O)NC2CCCCC2)c2ccncc2)cc1 (stereo not given)	6.2%	-2%	-9%	4%

cpd	Marburg entry inh	Cruzain inh noDet	StopGo reporter	NS1 inh
13	2%	x	-13%	x
14	x	3%	14%	x
15	u	-6%	-11%	-6%
16	1%[46.1 µM]	x	11%	-12%
17	20%	-9%	66%[activator]	1%
18	u	x	-11%	x
19	-3%	x	-8%	x
20	x	28%	-5%	x
21	x	-4%	12%	1%
22	x	-1%	-9%	-10%
23	9%	10%	0%	-5%
24	u	-26%	x	7%

4 entries drawn at random from those above:
cpd	compound	Cruzain Triton	SARS PLP yeast	RE007 growth inh	Lassa entry inh
18	NCCc1nc(-c2ccccc2)cs1	x	1%	14%	41%
2	CCC(=NCCc1ccc(OC)c(OC)c1)C1=C(O)CC(C)(C)CC1=O	x	-1%	3%	7%
10	Cc1ccc(N2C(=O)NC(=O)/C(=C\c3cn(CC(=O)O)c4ccccc34)C2=O)cc1	x	8%	14%	x
3	CCCN1C(=O)c2[nH]nc(-c3ccc(F)cc3)c2C1c1ccccn1 (stereo not given)	-1.9%	x	x	-10%[46.1 µM]

cpd	Marburg entry inh	Cruzain inh noDet	StopGo reporter	NS1 inh
18	u	x	-11%	x
2	x	x	-22%	x
10	x	x	7%	u
3	-4%[46.1 µM]	-11%	-16%	x

Carrying on:
cpd	compound	Cruzain Triton	SARS PLP yeast	RE007 growth inh	Lassa entry inh
25	COc1ccc(-c2noc(CSc3nnc(-c4ccncc4)n3-c3ccc(C)cc3)n2)cc1	-5.9%	x	x	-20%[46.1 µM]
26	O=C(O)c1ccc(N/N=C/c2cccc3cccnc23)cc1	x	-4%	12%	x
27	Clc1ccc2nc(-c3ccccn3)c(Nc3ccc4c(c3)OCO4)n2c1	1.7%	u	-1%	u
28	Cc1ccnc(NC(=O)CCC(=O)N(CC(=O)NC(C)(C)C)c2ccc(F)c(Cl)c2)c1	x	0%	9%	-20%[46.1 µM]
29	Cc1cccc(N2C(=O)CC(Cn3nc(C)cc3C)C2=O)c1 (stereo not given)	x	1%	-12%	x
30	CCn1c(C)nc2cc(C(=O)NNC(=S)NC(=O)c3ccc(OC)cc3)ccc21	x	13%	-19%	x
31	COc1ccc(OCC(=O)NC(CC(=O)O)c2ccc(OC)c(OC)c2)cc1 (stereo not given)	x	0%	11%	1%
32	CC(=O)Nc1ccc(NC(=O)C(C)OC(=O)/C=C/c2cnc3ccccc3n2)cc1 (stereo not given)	x	-2%	15%	x
33	C/C(NC(=O)c1cccs1)=C1\C(=O)C[C@@H]2[C@H]1C2(C)C	-4.9%	-3%	-25%	2%
34	COCCCNC(=O)C(=O)C1C(=O)Nc2ccccc21 (stereo not given)	x	1%	-15%	-9%[46.1 µM]
35	COc1ccc2c(c1)O[C@@H](c1cccc(C(F)(F)F)c1)[C@H](O)C2=O	-0.6%&-5.0%	-7%	x	u
36	COc1cccc(C(=O)OCCN2CCCCC2)c1	1.4%	-5%	-3%	5%

cpd	Marburg entry inh	Cruzain inh noDet	StopGo reporter	NS1 inh
25	-25%[46.1 µM]	10%	-24%	x
26	x	x	u	-7%
27	1%	9%	3%	19%
28	u	x	-6%	-3%
29	-1%	x	4%	-81%
30	x	x	-3%	0%
31	22%[46.1 µM]	x	-6%	x
32	x	x	-17%	-61%
33	14%	6%	17%	-34%
34	u	x	-3%	-6%
35	u	-3%&-9%	x	-39%
36	0%	-14%	4%	12%

cpd	compound	Cruzain Triton	SARS PLP yeast	RE007 growth inh	Lassa entry inh
37	COc1ccc(-n2ccnc(NCCc3ccc(S(N)(=O)=O)cc3)c2=O)cc1	-13%	x	x	-5%[46.1 µM]
38	Cc1nn(C(C)(C)C)c(OC(=O)c2ccc3c(c2)OCO3)c1S(=O)(=O)c1ccccc1	-5.8%	-28%	22%	8.9µM*
39	O=C(Nc1cccc(-c2nc3ccccc3s2)c1)c1cc(=O)c2ccccc2o1	-23%	-6%	x	0%
40	Cc1cccc(NC(=O)c2oc3ccccc3c2NC(=O)c2cc(=O)c3cc(Cl)ccc3o2)c1	-1.0%	x	x	30%[46.1 µM]
41	CCOC(=O)C1(Cc2ccccc2)CCN(Cc2ccc(C)s2)CC1	x	-2%	0%	-22%
42	CC(OC(=O)c1ccc2ncsc2c1)C(=O)Nc1ncc(Cl)cc1Cl (stereo not given)	-5.2%	6%	9%	-16%
43	Cc1cc2cc(CNC(=O)c3ccc(S(=O)(=O)N4CCOCC4)cc3)ccc2[nH]1	x	5%	-12%	x
44	COc1ccc(CNC(=O)C2CCN(S(=O)(=O)c3cc(OC)ccc3OC)CC2)cc1	0.1%	7%	12%	-19%
45	Cc1c(Cl)cccc1NC(=O)c1ccc(-n2ccnc2)nc1	1.7%	-4%	17%	5%
46	CCCCNC(=O)CC1Nc2cc(C)c(C)cc2NC1=O (stereo not given)	-7.4%	x	x	13%[46.1 µM]
47	Cc1ccc(C(=O)NCC(=O)O)cc1S(=O)(=O)N1CCCCC1	0.1%	5%	-5%	4%
48	COc1ccc(-n2c(SCC(=O)Nc3cccc(C)c3C)nc3c([nH]c4ccccc43)c2=O)cc1	0.1%	x	x	11%[46.1 µM]

cpd	Marburg entry inh	Cruzain inh noDet	StopGo reporter	NS1 inh
37	x	-27%	-10%	x
38	u	7%	u	-38%
39	13%	u	u	3%
40	u	-12%	-7%	x
41	u	x	0%	0%
42	u	11%	1%	20%
43	x	x	-21%	-9%
44	-10%	8%	20%	-3%[9.22 µM]
45	17%	5%	-20%	-3%
46	7%[46.1 µM]	-2%	4%	x
47	u	4%	3%	-3%
48	x	1%	-15%	x

cpd	compound	Cruzain Triton	SARS PLP yeast	RE007 growth inh	Lassa entry inh
49	CCc1nnc(NC(=O)CSc2nc3c(c(=O)n2-c2ccccc2OC)SCC3)s1	u	-7%	-16%	-12%
50	COc1ccc(C(O)P(=O)(OC2CCCCC2)c2ccc(N(C)C)cc2)cc1OC (stereo not given)	0.9%	u	2%	-7%
51	COc1ccc(OC)c(CNC(=O)CN2C(=O)CCn3nc(-c4cn(C)c5ccccc45)cc32)c1	-5.0%	x	x	9%[46.1 µM]
52	Cc1ccc(C(=O)N2CCN=C2SCc2ccc([N+](=O)[O-])cc2)cc1	0.2%	6%	-3%	-6%

cpd	Marburg entry inh	Cruzain inh noDet	StopGo reporter	NS1 inh
49	u	13µM*	-6%	0%
50	-4%	28%	21%	-7%
51	x	u	-25%	x
52	-22%	-9%	u	14%
